# B2AR ag: agonists of human beta-2 adrenergic receptor inducing internalization. P07550. Am2.2-beta2AR cells, FAP receptor internalization, flow cytometry; reference of the scale not given here. response, % (test concentration not listed). 340,000 compounds, 0.43% hits;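 active means response above a set limit, near 3 SD of response in nonfluorescent compounds, cut at about 42% in these data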;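 further: stock transfer was 100 nL into about 11 µL; a reference agonist was the positive control; negative values mostly stem from fluorescent compounds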
# LANA-H2B inh: blocks KSHV LANA binding to histone H2A/H2B | Q9QR71 | cell-free LANA-H2A/H2B peptide, fluorescence polarization | inhibition, % (no concentration beside the values) | 320,000 compounds, 0.6% hits; in the data active means inhibition mostly above about 10%, no sharp cut-off; inactive means mostly below about 6.7%;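 further: stock transfer was 7.5 nL into about 10 µL; 0% = median of vehicle wells and 100% = median of positive control wells; one replicate is shown; the record names a cut of 25% in any replicate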
# Target sequence (Q9QR71 whole entry, looked up): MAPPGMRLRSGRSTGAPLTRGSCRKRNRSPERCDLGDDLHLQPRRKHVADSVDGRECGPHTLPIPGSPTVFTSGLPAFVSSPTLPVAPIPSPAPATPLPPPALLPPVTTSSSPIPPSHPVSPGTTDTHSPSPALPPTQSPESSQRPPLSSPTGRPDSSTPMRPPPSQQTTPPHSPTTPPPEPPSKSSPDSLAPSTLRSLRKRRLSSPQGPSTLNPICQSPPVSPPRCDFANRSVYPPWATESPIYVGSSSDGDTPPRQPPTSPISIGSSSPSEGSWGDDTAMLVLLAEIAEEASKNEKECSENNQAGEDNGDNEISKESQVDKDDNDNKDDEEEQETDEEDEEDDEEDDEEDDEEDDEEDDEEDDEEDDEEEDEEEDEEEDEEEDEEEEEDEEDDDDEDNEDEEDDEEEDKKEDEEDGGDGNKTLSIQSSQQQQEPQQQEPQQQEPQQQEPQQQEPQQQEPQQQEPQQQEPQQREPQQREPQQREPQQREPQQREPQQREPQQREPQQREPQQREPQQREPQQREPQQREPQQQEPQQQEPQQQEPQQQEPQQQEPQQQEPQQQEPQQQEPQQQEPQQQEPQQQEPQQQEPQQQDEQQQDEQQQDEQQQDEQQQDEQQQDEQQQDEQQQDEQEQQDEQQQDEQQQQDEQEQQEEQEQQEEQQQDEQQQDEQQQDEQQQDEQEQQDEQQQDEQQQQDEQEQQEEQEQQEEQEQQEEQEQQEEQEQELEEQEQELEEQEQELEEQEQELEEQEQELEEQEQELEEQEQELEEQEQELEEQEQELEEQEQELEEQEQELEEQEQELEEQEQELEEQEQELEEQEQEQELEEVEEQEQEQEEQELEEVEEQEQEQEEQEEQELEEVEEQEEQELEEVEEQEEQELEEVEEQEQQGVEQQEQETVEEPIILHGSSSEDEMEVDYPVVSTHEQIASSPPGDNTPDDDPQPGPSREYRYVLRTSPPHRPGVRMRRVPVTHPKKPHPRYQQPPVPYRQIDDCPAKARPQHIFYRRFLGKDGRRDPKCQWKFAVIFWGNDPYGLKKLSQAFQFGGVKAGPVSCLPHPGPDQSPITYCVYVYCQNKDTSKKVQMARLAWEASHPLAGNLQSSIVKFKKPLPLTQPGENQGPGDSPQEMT
# ALR H2O2 inh: human ALR oxidase inhibition via reduced H2O2; inhibition, % (test concentration not listed); 290,000 compounds, 3.8% hits; P55789; purified ALR, DTT oxidation, H2O2 HRP-luminol luminescence;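 active means mean and each replicate at 75% or more; inconclusive means only one of the two met; inactive means neither met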;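 further: stock transfer was 7.5 nL into about 7.5 µL; 0% = neutral wells and 100% = wells with inactivated enzyme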
# HNF4A DNA FP: change in binding of human HNF4 alpha to DNA; HNF4a-FITC DNA binding, fluorescence polarization, 1 h; activity change, % at 10 µM; 360,000 compounds, 0.3% hits; AID 1224865; in the data active means activity change above about 30%, passing the limit was not always enough;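 further: controls were the assay level and a saturating level of protein; the project sought stronger binding though the title names inhibitors; some compounds called inactive have numbers as strong as hits; positive values seem to mean higher polarization but the record does not say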
# Calb FLC: C. albicans growth modulation with fluconazole; 300,000 compounds, 0.57% hits; C. albicans CaCi-2 (fluconazole-resistant clinical isolate) + fluconazole, Alamar Blue growth, 48 h; growth inhibition, % (no concentration beside the values);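 active means most replicates above 75%; inconclusive means exactly half above 75%; inactive means most below 75%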;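 further: all wells also contain fluconazole at 8 µg/ml as a sub-toxic cotreatment; 0% = median of DMSO wells and 100% = median of geldanamycin control wells; wells of about 8 µL received 7.5 nL stock; the first replicate is given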
# Vif A3G: inhibitors of Vif binding to APOBEC3G peptide, primary screen, biochemical, TR-FRET, GST-Vif 1-94, biotin-A3G peptide, dose response retest (AID 1117319). TR-FRET GST-Vif / biotin-A3G peptide binding; higher % means a stronger effect; test concentration not given here; strong numbers were not always called active. one-dose inhibition, %; IC50 in µM for titrated hits. 260,000 compounds, 0.57% hits;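 active means above the screen mean plus three standard deviations and confirmed in dose response; inconclusive means results disagree or hit not tested in dose response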;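 further: Vif residues 1-94 fused to GST binding biotinylated APOBEC3G peptide 110-148; 0% = full assay without inhibitor and 100% = GST in place of GST-Vif; retest series ran down from 100 µM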
# RanGTP-Imp inh: disruptors of Ran-importin-beta complex formation – biochemical, FRET, CFP-Ran, YFP-importin-beta, homogeneous, primary screen | 300,000 compounds, 1.1% hits | inhibition, % (concentration not given with the values) | AID 2216 | cell-free CFP-Ran/YFP-importin-beta FRET ratio;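 active means most replicates above 15%; inconclusive means exactly half above 15%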;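 further: 0% = DMSO wells and 100% = Ran loaded with GDP instead of GTP; wells of about 40 µL received 100 nL stock; the first replicate is given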
# The depositor's hits bear a star; u = inconclusive; x = not tested or not shown.
SMILES,B2AR ag,LANA-H2B inh,ALR H2O2 inh,HNF4A DNA FP,Calb FLC,Vif A3G,RanGTP-Imp inh
CC1(C)C=Cc2c(c3ccccc3[nH]c2=O)O1,0,0.1,6,1.3,-4,0%,3.8
O=C(CN(Cc1ccccc1)S(=O)(=O)c1ccc(S(=O)(=O)N2CCOCC2)cc1)Nc1ccccc1,5,1.4,1,-3.9,8,12%,5.4
O=C(NCC1CCCCC1)c1cccnc1,-5,2.2,1,-2.5,9,x,-1.1
N#CC12C(N)=NC3(OCCO3)C1(C#N)C1=C(CCC1)NC2c1ccccc1 (centres undefined),-2,5.9,-25,2.6,15,u,9.0
CCN(CC)C(=O)COc1ccc(/C=N/NC(=O)c2cc(-c3ccccc3OC)nc3ccccc23)cc1OC,13,2.6,-8,-1.8,13,x,-0.4
COc1ccc(C(=O)NCC(=O)N=Nc2c(O)n(Cc3ccccc3)c3ccccc23)cc1OC,-13,-0.9,x,2.9,u,7%,0.0
CCOc1ccc(NS(=O)(=O)c2ccc(C(=O)NCC3(N(C)C)CCCCC3)cc2)cc1,-2,-5.1,3,-0.2,-1,x,3.6
COc1cc(SC)ccc1C(=O)Nc1ccc(S(=O)(=O)N2CCCC2)cc1,2,4.0,-1,0.1,3,-2%,2.2
COc1cc(OC)cc(-c2n[nH]c(=S)n2-c2ccc3c(c2)OCO3)c1,5,-12,x,0.9,-2,x,u
Cc1cc(C)c(NN=c2c(=O)c3ccccc3c2=O)c(C)c1,-7,-1.3,3,0.7,-25,2%,5.7

# An excerpt from above, showing only LANA-H2B inh:
compound	LANA-H2B inh
CCN(CC)C(=O)COc1ccc(/C=N/NC(=O)c2cc(-c3ccccc3OC)nc3ccccc23)cc1OC	2.6
O=C(CN(Cc1ccccc1)S(=O)(=O)c1ccc(S(=O)(=O)N2CCOCC2)cc1)Nc1ccccc1	1.4

# (continued)
SMILES,B2AR ag,LANA-H2B inh,ALR H2O2 inh,HNF4A DNA FP,Calb FLC,Vif A3G,RanGTP-Imp inh
Cc1ccc(S(=O)(=O)N2CCC(C)CC2)cc1C(=O)NCCN1CCOCC1,-1,-5.0,-1,2.4,x,-1%,x
CC1=Nn2c(nnc2-c2ccccc2F)SC1,8,-0.9,-18,-0.1,-15,4%,1.5
CCCCSc1nc(N)c(NC(=O)c2ccco2)c(=O)[nH]1,15,-3.5,14,0.0,8,5%,8.1
Cc1ccc2c(CC(=O)Nc3c(C)n(C)n(-c4ccccc4)c3=O)coc2c1,1,0.6,-3,-3.2,-10,-4%,0.2
CC(C)CC(C(=O)OCC(=O)Nc1cccc(Cl)c1)N1C(=O)C2CC=CCC2C1=O (centres undefined),14,-3.9,-8,-0.5,3,x,-4.3
CC(=O)c1sc(NC(=O)c2ccc(F)c(F)c2)nc1C,-7,-0.6,-7,0.5,38,1%,2.8
COc1ccc(C=C(C#N)c2ccc(OC)cc2)cc1,2,x,x,0.7,x,-2%,x
Cc1c(C(=O)O)sc2nc(SCC(=O)Nc3ccc(S(=O)(=O)NCCCC(=O)O)cc3)[nH]c(=O)c12,-3,-5.1,-5,-0.1,u,-3%,-3.2
COC(=O)c1c(-c2ccc(Br)cc2)csc1NC(=O)Cc1ccc(OC)c(OC)c1,8,-1.4,-12,1.3,-4,14%,-1.5
CCN(CC)C(=O)Cc1ccccc1,9,-2.6,x,-1.2,-4,x,-1.1
CSCCC(NC(=O)c1ccc(C(C)(C)C)cc1)C(=O)OCC(=O)N1CCCC1=O (centres undefined),5,2.4,-1,-0.2,x,-7%,x
O=c1cc2n(c(=O)[nH]1)CCC1=C2CCCC1,-4,-3.1,-7,-2.0,-6,13%,-6.2
CN1CCN(C(=O)CC2C(=O)NCCN2Cc2ccc(-c3ccccc3)cc2)CC1 (centres undefined),-3,0.7,-6,2.1,-2,u,1.3
CCOC(=O)C1CCN(S(=O)(=O)c2ccc(Cl)s2)CC1,0,-3.4,-1,-1.2,-5,-9%,-1.9
C/C(Cl)=C\Cn1c(Nc2ccc(C)cc2)nc2c1c(=O)n(C)c(=O)n2C,4,-3.8,8,-1.9,2,-6%,-2.1
CCOc1ccc(CCNC(=O)c2cccc(N3CCCC3=O)c2)cc1OCC,3,-3.2,-3,0.8,-1,-8%,-0.6
O=C(Nc1nnc(-c2ccco2)s1)c1ccccc1,-7,3.9,16,0.1,16,22%,0.3
Cc1n[nH]c(C)c1S(=O)(=O)N1CCN(S(=O)(=O)c2ccccc2C#N)CC1,-2,x,x,0.5,x,-10%,x
COc1ccc(OC)c(S(N)(=O)=O)c1,1,-5.6,-4,0.5,-6,1%,0.0
COc1cc(/C=N/n2c(-c3n[nH]c4c3CCC4)n[nH]c2=S)cc(OC)c1O,5,0.3,95*,-1.9,-1,5%,0.7
N#Cc1c(F)cccc1N1CCN(Cc2ccc3c(c2)OCO3)CC1,-4,-1.0,1,-2.1,-4,x,0.7
O=C(CCSCCC(=O)NCc1cccs1)NCc1cccs1,-11,-1.9,-11,-0.9,0,-3%,-1.6
COc1ccc(C(=O)OCC(=O)c2c[nH]c3ccccc23)c(OC)c1,4,-2.2,x,1.4,x,x,x
CN(Cc1ccc(F)cc1)C(=O)c1cccc(OC2CCN(C3CCCC3)CC2)c1,3,-2.9,-19,0.4,-15,17%,-3.4
c1cc2c(cc1-c1[nH]ncc1CN1CC3C[C@@H]4CC1C[C@H](C3)C4)OCO2,0,-4.5,-4,-3.0,-7,8%,-1.7
O=C(Cc1ccc([N+](=O)[O-])cc1)Nc1ccc(O)cc1C(=O)O,0,-2.6,68,-5.0,0,13%,-2.9
CC1=C/C(=C(/c2cc(C)c(O)c(Br)c2)c2ccccc2S(=O)(=O)O)C=C(Br)C1=O,0,-0.1,u,-9.9,36,x,-1.2
O=C(CN1C(=O)NC(Cc2c[nH]c3ccccc23)C1=O)Nc1cccc(S(=O)(=O)N2CCCCCC2)c1 (centres undefined),26,4.0,-12,0.1,8,12%,2.7
O=C(Cn1c(=O)oc2cc(S(=O)(=O)N3CCCC3)ccc21)NC1CCCCC1,7,-0.7,3,2.0,-12,x,1.3
O=C(Cc1ccccc1)N(c1ccc(F)cc1)C1C=CS(=O)(=O)C1 (centres undefined),-20,-6.9,-8,3.2,8,5%,u
Cc1ccc(C(=O)OCC(=O)NCCNC(=O)COC(=O)c2ccc(C)s2)s1,-1,3.8,-2,-0.4,-2,-1%,-0.3
CCSc1nc2c(c(=O)[nH]1)C(c1ccccn1)C1=C(CC(C)(C)CC1=O)N2 (centres undefined),-2,-1.0,9,-0.3,-6,1%,0.5
Cc1cccc(NC(=O)CN2CCN(CC(=O)NCC3(N4CCCCC4)CCCCC3)CC2)c1C,9,x,x,-0.3,x,-1%,x
CC1(C)CC(=O)CC(C)(C)N1OC(=O)c1ccccn1,-1,-1.7,-29,0.4,-4,-1%,0.6
Clc1ccccc1C=NNc1ccccn1,4,x,x,3.7,x,-4%,x
c1ccc(C2=Nn3c(nnc3-c3ccco3)SC2)cc1,-8,7.3,-6,-1.6,38,x,6.3
COc1cccc(CNCc2ccc(OC)cc2OC)c1,-1,-6.4,1,-4.8,-9,x,u
Cc1cc(N2C(=O)c3ccc(C(=O)Nc4ccc(O)cc4C(=O)O)cc3C2=O)no1,-3,1.7,56,-3.6,-9,x,2.0
COc1cccc(C(=O)Nc2nnc(S(=O)(=O)N3CCCCC3)s2)c1,3,-3.8,2,-1.6,2,x,3.9
CC(C)SCC(=O)Nc1ncc2c(n1)-c1ccccc1CC2,3,1.3,-17,-7.7,0,8%,18*

# Copied from above (six entries):
SMILES,B2AR ag,LANA-H2B inh,ALR H2O2 inh,HNF4A DNA FP,Calb FLC,Vif A3G,RanGTP-Imp inh
Cc1cccc(NC(=O)CN2CCN(CC(=O)NCC3(N4CCCCC4)CCCCC3)CC2)c1C,9,x,x,-0.3,x,-1%,x
CC1(C)CC(=O)CC(C)(C)N1OC(=O)c1ccccn1,-1,-1.7,-29,0.4,-4,-1%,0.6
Clc1ccccc1C=NNc1ccccn1,4,x,x,3.7,x,-4%,x
c1ccc(C2=Nn3c(nnc3-c3ccco3)SC2)cc1,-8,7.3,-6,-1.6,38,x,6.3
COc1cccc(CNCc2ccc(OC)cc2OC)c1,-1,-6.4,1,-4.8,-9,x,u
Cc1cc(N2C(=O)c3ccc(C(=O)Nc4ccc(O)cc4C(=O)O)cc3C2=O)no1,-3,1.7,56,-3.6,-9,x,2.0

# (further entries)
SMILES,B2AR ag,LANA-H2B inh,ALR H2O2 inh,HNF4A DNA FP,Calb FLC,Vif A3G,RanGTP-Imp inh
CCOC(=O)c1cnc(SCC(=O)N2CCN(C(=O)c3ccco3)CC2)nc1N,-11,-1.1,-17,0.6,-4,-6%,-0.3
Cc1ccc(C(=O)CC2(O)C(=O)N(Cc3ccccc3)c3ccccc32)o1 (centres undefined),-1,3.6,-7,2.5,x,-2%,5.4
COCCc1ncc(CN2CCC(C(=O)Nc3ccc(-n4cccn4)cc3)CC2)cn1,50*,5.0,-18,-1.3,16,6%,u
Cc1cccc(N(CC(=O)Nc2ccccc2-c2ccccc2)S(=O)(=O)c2ccccc2)c1C,1,-2.1,-4,-0.4,15,x,3.4
C/C(CC(=O)Nc1ccc(Cl)cc1C(F)(F)F)=N\NC(=O)c1ccccn1,-7,1.0,25,0.1,-17,8%,3.4
C[C@]12c3[nH]c4ccccc4c3CCN1C(=O)C(CC(=O)NCC13CC4CC(CC(C4)C1)C3)C[C@@H]2C(=O)N1CCOCC1 (some centres undefined),-4,x,-2,-3.4,x,2%,x
COc1ccc(C(C)(C)C)cc1S(=O)(=O)N1CCC(C(N)=O)CC1,0,1.0,5,0.0,11,-3%,4.1
O=C1CCc2nc3ccccc3c(=O)n2N1,-11,2.0,0,-2.2,-9,-2%,1.5
O=C(CCC(=O)c1cccs1)OCC(=O)c1ccccc1,2,4.9,-3,-2.0,x,1%,x
Cc1cc(NC(=S)N(CCCN2CCOCC2)Cc2ccco2)ccc1Cl,0,0.8,-5,0.4,-19,x,1.5
CCSc1nc(N)c(C#N)c(-c2ccco2)c1C#N,7,5.0,-1,-1.3,-7,-3%,0.1
COc1cc(OC)cc(-c2nc3nc(C)c(CCC(=O)NCC(OC)OC)c(C)n3n2)c1,-3,4.2,x,-7.1,3,-3%,5.5
CCOC(=O)C1(CCCc2ccccc2)CCN(C2CCSCC2)CC1,12,x,x,0.8,u,-5%,4.0
Nc1nnc(SCC(=O)NN2C(=O)NC3(CCCCC3)C2=O)s1,4,-0.9,-1,2.7,25,x,-0.1
CCc1ccc(NC(=O)c2cc(C(C)C)on2)cc1,4,5.9,0,-3.0,-15,-7%,-1.4
O=C(NCC#CCOCc1ccccc1)c1ccccc1,11,0.5,30,2.9,-19,3%,-2.1
O=C(CN1C(=O)c2cccc([N+](=O)[O-])c2C1=O)OCC(=O)N1CCCCC1,18,-6.2,-11,4.2,-6,10%,4.2
COC(=O)c1[nH]c2ccccc2c1CN1CCOCC1,-5,7.7,-9,-0.4,37,x,1.6
COc1ccc(-c2csc(NC(=O)C(CC(=O)O)N3CCOCC3)n2)cc1 (centres undefined),3,-3.8,-10,1.6,-1,x,-0.4
O=C(Nc1cccn(Cc2cccc(F)c2)c1=O)NC1CCCCC1,-5,-0.3,x,-2.5,38,x,0.4
CC(C)CCNC(=O)C(c1ccncc1)N(C(=O)Cn1nnc(-c2ccc(F)cc2)n1)c1ccccc1F (centres undefined),-3,4.2,2,-1.8,x,x,x
CCCCn1c(N)c(N(CCOC)C(=O)c2ccc(S(=O)(=O)N3CCCCC3)cc2)c(=O)[nH]c1=O,-1,1.3,-2,0.8,1,2%,1.8
O=C(COc1ccc(/C=N/NS(=O)(=O)c2ccccc2)cc1)N1CCOCC1,6,-10,7,-2.5,-2,-5%,1.8
O=C1CCC2=C(CCCC2=O)N1,-1,0.0,-2,6.7,15,4%,2.3
COc1cc(/C=N/NC(=O)CNc2n[nH]c(=O)[nH]c2=O)ccc1O,-3,4.0,98*,-1.6,-25,x,-3.1
